AID504770: growth inhibitors of E. coli YBA685 in a screen for V. cholerae RctB (chromosome II replication) inhibitors; 130,000 tested, 0.27% active; z-score (no concentration beside the values); AID 504770; E. coli YBA685 rctB-dependent plasmid, OD600 growth, 3 h; hits give low values;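 active = z-score under -2 on both plates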;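 also: wells of about 30 µL received 100 nL stock; score is relative to mean and SD of the test wells; the first replicate is given; strong numbers were not always called active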
Ba CapD inh: CapD enzyme inhibition; z-score (no concentration beside the values); 140,000 tested, 0.23% active; purified CapD enzyme, fluorescence intensity read-out; hits give low values; some hits fall short of the stated cut; AID 492967;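 active = z-score under -4 in either of two replicates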;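 also: stock transfer was 100 nL into about 40 µL; score is relative to mean and spread of the plate; one replicate is shown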
An asterisk follows results filed as active; . = not tested or not shown; & = joins results of further samples. Only part of the results is shown. The share of hits here may be higher or lower than overall.

Preview:
SMILES | AID504770 | Ba CapD inh
Cc1cc(C(=O)Cn2cc(S(=O)(=O)N(C)C)ccc2=O)c(C)n1-c1ccc2c(c1)OCO2 | 0 | .
CN1CCc2nc(NC(=O)CC3Sc4ccccc4NC3=O)sc2C1 (centres undefined) | -2.3 | .

All compounds of this part, from the first entry:
SMILES | AID504770 | Ba CapD inh
Cc1cc(C(=O)Cn2cc(S(=O)(=O)N(C)C)ccc2=O)c(C)n1-c1ccc2c(c1)OCO2 | 0 | .
CN1CCc2nc(NC(=O)CC3Sc4ccccc4NC3=O)sc2C1 (centres undefined) | -2.3 | .
Cc1sc(NC(=O)C2CC2)c(C(N)=O)c1C | 0.35 | 1.1
CCOC(=O)c1c(CS(=O)(=O)Cc2ccc(Cl)cc2)oc2c(F)c(F)c(F)c(F)c12 | 2.2 | 0.33
CC(C)CCCC(C)C1CCC2C3CC=C4CC(OC(=O)c5cccc(Cl)c5)CCC4(C)C3CCC12C (centres undefined) | . | -0.095
O=C1CC(c2ccccc2OCc2ccccc2)c2cc3c(cc2N1)OCCO3 (centres undefined) | -0.05 | -0.47
Cc1cc2c(n1-c1ccc(C(=O)O)cc1)CCCC2 | 0.6 | -7.5*
COC(=O)c1cc(CN2CCOCC2)ccc1O | -2 | -0.29
COc1ccc(-c2nn(CN3CCCCC3)c(=S)n2-c2ccccc2)cc1OC | . | 0.57
CC1(C)Cc2nc(Cl)c(C(=O)O)cc2CO1 | . | 1.1
Cn1nc(OC(C)(C)C(=O)Nc2ccc(Cl)cc2Cl)cc1C(F)(F)F | 0.1 | 1
CCc1cc(=O)oc2cc(OCC(=O)c3ccc(F)cc3)ccc12 | -1 | 1.8
Cc1cccn2c(=O)c(/C=C3\SC(=S)N(CCCC(=O)O)C3=O)c(NCCc3ccccc3)nc12 | . | 0.09
CC1(C)Cc2c(sc3c2c(=O)n(Cc2ccccc2)c2nncn32)CO1 | -0.15 | 0.28
COc1ccc(-n2ccnc(NCCc3ccccc3)c2=O)cc1 | -0.05 | 1.7
O=C(Nc1nc2ccccc2s1)C1c2ccccc2Oc2ccccc21 | -0.15 | -1.2
O=C1CN2C(=Nc3ccc(Cl)cc3C2c2ccccc2)CN1 (centres undefined) | 1.1 | 0.085
O=C1CC(Nc2ccc(N3CCOCC3)cc2)C(=O)N1c1cccc(C(F)(F)F)c1 (centres undefined) | 0.8 | -0.075
CCn1c(SCc2nnc(-c3ccccc3)o2)nc2sc(C)c(C)c2c1=O | -0.95 | .
CCC(CC)NC(=O)Nc1ccccc1C | -0.3 | -0.25
CCc1nn2c(C)cc(=O)[nH]c2c1C | 1.1 | 3
CCCCOc1ccc(C2C(N3C(=O)c4ccccc4C3=O)C(=O)N2c2ccc(C)cc2)cc1 (centres undefined) | . | -0.055
COc1ccc(CCNc2nc(SCC(=O)c3ccc(F)cc3)nc3ccccc23)cc1OC | 0.65 | 0.19
CNC(=O)c1ccc(OC)c(S(=O)(=O)NC)c1 | 0.4 | 0.15
Cn1c(SCC(=O)c2ccc(Cl)cc2)nnc1-c1ncc(C(F)(F)F)cc1Cl | 0.4 | 11
ON=C(c1cccs1)c1cccs1 | . | -0.14
CCOc1ccc(-c2ncc(S(C)(=O)=O)c(-c3ccc(Cl)cc3)n2)cc1 | . | 0.14
CC(CNC(=O)OCc1cccc(OCc2ccccc2)c1)c1ccccc1 (centres undefined) | . | -1.6
Cc1ccc(SCC(=O)N2CCc3ccccc32)cc1 | -0.25 | -0.21
Cc1nnc(N2C(=O)C(=O)/C(=C(/O)c3ccc(OC(C)C)cc3)C2c2ccco2)s1 (centres undefined) | 0.2 | -2.1
OC1(c2ccccn2)COc2ccccc2O1 (centres undefined) | -0.4&-0.9 | 0.63&-0.15
CCCCOc1ccc(-c2nc(C=Nc3cccc(C(F)(F)F)c3)c(O)o2)cc1 | . | 0.24
CCOC(=O)c1sc(NC(=O)Cn2nc([N+](=O)[O-])c([N+](=O)[O-])c2C)c(C(=O)OCC)c1C | . | -0.48
O=C(Nc1ccc(S(=O)(=O)Nc2nccs2)cc1)c1cc2ccccc2oc1=O | -0.3 | -0.38
CCOC(=O)/C(C#N)=C/Nc1ccc2oc(=O)c(NC(C)=O)cc2c1 | -2.9 | 0.95
CC(C)OC(=O)CSc1nnnn1C | -0.15 | .
CCN(CC)Cc1ccc(C(=O)NN)o1 | 0.1 | .
O=C(O)c1n[nH]c(=S)n1C1CC1 | -0.05 | .
CCn1c(CS(=O)Cc2ccc(Br)cc2)n[nH]c1=S (centres undefined) | . | 0.08
C(=N\n1cnnc1)/c1ccccn1 | -0.65 | -0.74
COc1ccc(C2CC(=O)C3=C(C2)Nc2ccccc2N(C(C)=O)C3c2ccc(C)cc2)cc1OC (centres undefined) | . | 13
N#CC1=C(N)N(N2CCOCC2)C2=C(C(=O)CC(c3ccccc3)C2)C1c1ccc(Cl)cc1 (centres undefined) | 0.25 | -0.51
N#Cc1c2c(c(NCCc3ccccc3)n3c1nc1ccccc13)CCC2 | . | -0.05
O=C(CN1CCN(CCO)CC1)N1c2ccccc2Sc2ccc(C(F)(F)F)cc21 | . | 0.095
CCN1C(=O)N/C(=C/c2cn(CC(=O)Nc3ccc(F)cc3)c3ccccc23)C1=O | 0.05 | -0.29
OC(CNCc1ccc(F)cc1)c1ccccc1 (centres undefined) | -1.2 | 0.05
COc1ccccc1C(=O)N(C)S(=O)(=O)c1ccc(C)cc1 | 0.75 | .
Cn1ccc(=O)[nH]c1=O | -0.45 | .
O=S(=O)(c1ccc(Cl)cc1)n1nc(C(F)(F)F)c2cnccc21 | 0 | 3.8
CCC(C)C(=O)Nc1cccc(C(F)(F)F)c1 (centres undefined) | 0.7 | 0.31
COc1ccccc1NC(=O)c1ccc2c(c1)C(=O)N(Cc1ccncc1)C2=O | -0.75 | -0.095
CCS(=O)(=O)c1ccc(OC)c(NC(=O)c2cc3ccccc3o2)c1 | 0.35 | .
CSc1ccc(-c2nc(CSCC(=O)N3C(C)CCCC3C)c(C)o2)cc1 (centres undefined) | -0.55 | 34
COC(=O)C1CCN(Cc2csc(-c3ccccc3OC)n2)CC1 | 1.6 | .
CC(CNS(=O)(=O)c1ccc(-n2cccn2)cc1)c1ccccc1 (centres undefined) | 0.15 | 0.3
CN(CC(=O)Nc1ccccc1Cl)C(=O)c1cc(=O)[nH]c2ccccc12 | 2.6 | .
CCOC(=O)c1c(C)oc2c1c1c(c3ccccc32)OCN(CCC(=O)O)C1 | 0.15 | .
Cc1cc(C(=O)OCCCc2nc(-c3ccccc3)no2)c2ccccc2n1 | 1.3 | .
CC1(C)COCN1C(=O)c1cc2c(=O)n3ccccc3nc2s1 | 0.3 | .
O=C(O)C1(c2cccc(Cl)c2)CCC1 | -1 | 0.04

Additional records follow.
SMILES | AID504770 | Ba CapD inh
O=C(NCCc1ccccc1)c1cc(=O)[nH]c2ccccc12 | 1.6 | .
Cc1ccc(/C=N/NC(=O)C2CC23CCC3)cc1 (centres undefined) | 1.5 | -0.35
CCOC(=O)C1=C(C)NNC(=Nc2cccc(C)c2C)S1 | 0.6 | .
COc1ccc(S(=O)(=O)N2CCSc3cc(Cl)ccc32)cc1 | . | 0.45
O=C(NC(=O)c1ccccc1Cl)NC1CC1 | -0.9 | 0.79
Cc1noc(C)c1C(=O)N1CCN(C(=O)c2ccco2)CC1 | -0.45 | -0.005
N#CCC(=O)N/N=C/c1cccc(OCc2ccccc2)c1 | . | 0.035
S=C(NCCc1ccccc1)NN1CCOCC1 | -0.9 | 0.025
CCOc1ccccc1Nc1nc2ccccc2s1 | 2.5 | -0.22
COc1ccc2c(c1)-c1cc(Cl)ccc1S(=O)(=O)N2C(C)=O | . | 0.54
CCc1nn2cc(-c3ccc(Cl)cc3)nc2s1 | -0.45 | -0.43
CCCn1c2ccccc2c2cc(C(=O)O)ccc21 | 2.8 | 2.8
O=c1onc(-c2ccccc2C(F)(F)F)n1-c1cccnc1 | -1.1 | 0.26
CCC1=NN2C(=N)/C(=C/c3cn(CCOc4cccc(OC)c4)c4ccccc34)C(=O)N=C2S1 | 0.9 | 0.29
O=C(Cn1cnc2c(nnn2Cc2ccc(Cl)cc2)c1=O)N1CCc2ccccc21 | 0.8 | -0.6
CCCn1c(CCC(=O)Nc2ccc(C)cc2)nc2cccnc21 | -0.4 | 1.3
N#CC1=C(N)N(c2ncn[nH]2)C2=C(C(=O)CCC2)C1c1ccc(Br)cc1 (centres undefined) | -0.15 | -1.1
C=CCn1cc(C)c(=O)n(CC=C)c1=O | -0.75 | .
O=C(O)c1ccccc1NCCC1=CCCCC1 | -1.1 | .
CCOC(=O)Nc1ccc2c(COC(=O)C3COc4ccccc4O3)cc(=O)oc2c1 (centres undefined) | -0.7 | .
Cc1cc(N2CCOCC2)nc(-c2ccccc2O)n1 | -0.5 | -0.35
CCOC(=O)c1ccccc1NC(=O)Cc1ccc(OC)c(S(=O)(=O)N2CCOCC2)c1 | -0.05 | .
O/N=C/c1nc2ccccc2[nH]1 | -0.85 | 53
CN(C)c1ccc(NC(=O)c2cc(-c3ccccc3)nc3ccccc23)cc1 | -0.3 | -0.57
O=C(O)CCC(=O)Nc1ccc(Oc2ccc(Cl)cc2)cc1 | -1.2 | -0.21
CC(C)(C)OC(=O)Nc1cccc(C(=O)OCCCn2c(=O)[nH]c3ccccc32)c1 | 1.8 | .
CC1CCCC(C)N1NC(=O)c1ccc(Cl)c(S(N)(=O)=O)c1 (centres undefined) | . | 0.02&0.44
O=C(CSc1ccccn1)N/N=C/c1ccccc1 | -0.75 | 0.16
Cc1cc(C2=Nc3ccccc3SC2)ccc1Cl | 0.1 | 0.51
CCCN(CCC)c1ncnc2c1cnn2-c1cccc(C)c1 | 0.25 | -0.36
Cc1ccccc1CN1CC2CC(C1)c1cccc(=O)n1C2 (centres undefined) | -0.85 | 0.07
COc1cccc(CNC(=O)CCCN2C(=O)CSc3ncccc32)c1 | -0.3 | 1.3
C=CCN1C(=O)CC(C(=O)OCC)=C1C | -0.85 | 0.3
O=C1C=CC(=O)C(CCC2=CC(=O)C=CC2=O)=C1 | 0.6 | 0.75
CC(=O)Oc1ccc(/C=C2\N=C(c3cccc(Cl)c3Cl)OC2=O)cc1OC(C)=O | . | -0.04
COC(=O)CC1(O)c2ccccc2C(=O)N1Cc1ccccc1 (centres undefined) | -0.6 | -0.19

Grouped by structure, the entries above with a furan ring, fused or not.
SMILES | AID504770 | Ba CapD inh
CCOC(=O)c1c(CS(=O)(=O)Cc2ccc(Cl)cc2)oc2c(F)c(F)c(F)c(F)c12 | 2.2 | 0.33
Cc1nnc(N2C(=O)C(=O)/C(=C(/O)c3ccc(OC(C)C)cc3)C2c2ccco2)s1 (centres undefined) | 0.2 | -2.1
CCN(CC)Cc1ccc(C(=O)NN)o1 | 0.1 | .
CCS(=O)(=O)c1ccc(OC)c(NC(=O)c2cc3ccccc3o2)c1 | 0.35 | .
CCOC(=O)c1c(C)oc2c1c1c(c3ccccc32)OCN(CCC(=O)O)C1 | 0.15 | .
Cc1noc(C)c1C(=O)N1CCN(C(=O)c2ccco2)CC1 | -0.45 | -0.005

Other results follow.
SMILES | AID504770 | Ba CapD inh
COc1ccccc1OC(=O)c1ccc2c(c1)OCCO2 | -1.1 | .
NC(=O)CSc1nc(-c2ccccc2)nc2c1Cc1ccccc1O2 | -0.15 | -0.005
O=C(OCC1CCCCCC1)N1CCc2c([nH]c3ccccc23)C1 | . | -0.99
COc1ccccc1NC(=O)C1=C(C)NC(SCC(=O)Nc2nccs2)=C(C#N)C1c1ccc(C)o1 (centres undefined) | . | -0.53
CN=C(Nc1ccc(C)cc1C)SC | 1.2 | 0.04
CC(C)(C)c1ccc(COC(=O)NC(CCCNC(=O)OCc2ccccc2)C(=O)OCc2ccccc2)cc1 (centres undefined) | . | -0.66
Cc1ccc(Cc2nnc(C(=O)NCCC3=CCCCC3)o2)cc1 | 1.1 | 1.2
CC1CCCCN1C(=S)NCCc1ccccc1 (centres undefined) | -0.85 | -0.07
CS(=O)(=O)Nc1cccc(C2=NN(C(=O)CCC(=O)O)C(c3cccs3)C2)c1 (centres undefined) | -0.35 | 0.38
O=C1CSC(c2ccccc2)C(=O)N1c1ccc(C(F)(F)F)cc1 (centres undefined) | . | -0.91
CC1(C)OC(=O)C(=Cc2c[nH]c3ccccc23)C(=O)O1 | 0.9 | -0.69
COC(=O)c1ccccc1NC(=S)N(Cc1ccco1)Cc1cc2cc(C)ccc2[nH]c1=O | 2.4 | .

Filtered by structure: the compounds so far with bromine.
SMILES | AID504770 | Ba CapD inh
CCn1c(CS(=O)Cc2ccc(Br)cc2)n[nH]c1=S (centres undefined) | . | 0.08
N#CC1=C(N)N(c2ncn[nH]2)C2=C(C(=O)CCC2)C1c1ccc(Br)cc1 (centres undefined) | -0.15 | -1.1

(next part)
SMILES | AID504770 | Ba CapD inh
CCCSc1nnc2n(-c3cc(C)cc(C)c3)c(=O)c3ccccc3n12 | 0.15 | .
O=C(NCC1CCCO1)C1CC(=O)N(c2ccccc2)C1 (centres undefined) | 1 | .
CC(C)(C)OC(=O)N1CCC(C(=O)Nc2nnc(-c3ccc(Cl)cc3)o2)CC1 | -0.55 | .
Cc1ccc(-n2c(C)cc(C(=O)CN3CC(C)OC(C)C3)c2C)cc1 (centres undefined) | 1.8 | .
COc1ccc(/C=C2\C(=O)NC(=S)N(c3cccc(Br)c3)C2=O)c(OC)c1 | . | 0.16
Fc1ccc(-c2nn(-c3ccccc3)cc2C=NCc2ccccc2)cc1 | 1.1 | 7.2
Cc1ccc(N2C(=O)Nc3ccccc3C2(O)C(=O)N2CC(C)CC(C)C2)cc1C (centres undefined) | -0.75 | -1.6
Cc1ccc2oc(=O)c3cc(C(=O)NC(C)C)sc3c2c1 | 1.3 | 17
Cc1ccc(NC(=O)CCc2nnc3ccc(N4CCC5(CC4)OCCO5)nn23)cc1 | -0.65 | 0.07
